PKD1 inh – inhibitors of human PKD1 kinase, biochemical, fluorescence polarization | Serine/threonine-protein kinase D1 (Homo sapiens), Q15139 | PKD1 kinase fluorescence polarization assay | inhibition, %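 (about 10 µM by stock and volumes)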 | 200,000 compounds, 0.056% hits | AID 797, 2007;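 active means inhibition of 50% or more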;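 further: controls were vehicle for no effect and a reference inhibitor for full effect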
Target sequence (Q15139 whole entry, looked up): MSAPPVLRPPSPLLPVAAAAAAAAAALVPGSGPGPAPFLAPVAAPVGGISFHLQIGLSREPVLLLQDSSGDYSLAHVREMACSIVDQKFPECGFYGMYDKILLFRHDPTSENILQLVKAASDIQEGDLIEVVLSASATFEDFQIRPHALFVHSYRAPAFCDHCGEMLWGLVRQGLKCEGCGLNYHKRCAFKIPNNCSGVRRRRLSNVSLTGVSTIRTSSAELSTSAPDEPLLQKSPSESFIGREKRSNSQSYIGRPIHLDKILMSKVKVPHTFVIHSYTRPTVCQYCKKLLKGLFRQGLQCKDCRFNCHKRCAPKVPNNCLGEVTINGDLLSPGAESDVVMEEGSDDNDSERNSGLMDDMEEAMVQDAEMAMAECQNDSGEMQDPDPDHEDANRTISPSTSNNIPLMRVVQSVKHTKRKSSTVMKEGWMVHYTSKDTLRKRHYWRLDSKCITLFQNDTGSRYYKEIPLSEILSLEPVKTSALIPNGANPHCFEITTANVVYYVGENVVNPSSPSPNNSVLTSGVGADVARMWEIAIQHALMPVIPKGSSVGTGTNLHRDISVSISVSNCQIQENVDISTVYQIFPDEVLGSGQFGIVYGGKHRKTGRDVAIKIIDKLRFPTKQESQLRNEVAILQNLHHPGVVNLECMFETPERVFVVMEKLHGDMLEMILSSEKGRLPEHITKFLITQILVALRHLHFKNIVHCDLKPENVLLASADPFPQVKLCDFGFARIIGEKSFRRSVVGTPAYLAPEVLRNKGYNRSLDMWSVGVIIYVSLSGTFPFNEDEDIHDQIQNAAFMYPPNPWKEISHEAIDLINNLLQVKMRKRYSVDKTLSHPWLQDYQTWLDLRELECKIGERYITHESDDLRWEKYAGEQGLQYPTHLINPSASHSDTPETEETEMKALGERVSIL
GALR2 ag – GALR2 receptor agonists, primary screen, cell-based. Galanin receptor type 2 (Homo sapiens), O43603. GALR2-expressing cells, agonist activation read-out. activation, %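 (tested at 5 µM)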. 140,000 compounds, 0.48% hits. AID 803, 2007;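 active means above mean plus 3 SD of all compounds, about 5% in these data, not always enough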;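 further: 0% = vehicle buffer wells and 100% = reference agonist at full effect; tested in CHO reporter cells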
HSV augment – enhancers of HSV replication in host cells, fold increase, host cell viability; AID 1956, 2009; HSV replication augmentation in cells; 220,000 compounds, 0.005% hits; maximum fold increase;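 active means peak rise of 1.5-fold or more in the series; inconclusive means self-fluorescent or not available for retest; tested in PC3 cells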;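 further: first round at 10 µM; read as green reporter fluorescence; hits show the peak of a series up to 25 µM; 1 = signal of infected wells without compound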
RGS16-Gao HTS – modulators of RGS16 binding to Galphao, primary screen, biochemical, human proteins, multiplexed bead flow cytometry; bead-based flow cytometry RGS16-Galphao binding, fluorescence; actives lie on both sides; AID 1441, 2008; binding response (% of control), % at 10 µM; Regulator of G-protein signaling 16 (Homo sapiens) + Guanine nucleotide-binding protein …; 220,000 compounds, 0.38% hits;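 active means below 25% or above 175%, edge rows of some plates excepted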;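 further: Galphao activated by GDP with aluminum fluoride before binding; 100% = wells without compound and 0% = beads without RGS; some results beyond the cut were filed as inactive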
INS promoter inh – inhibitors of insulin promoter-driven GFP, primary screen, imaging, TRM-6 cells (human fetal islet line), eGFP reporter, cell count; inhibition, % at 2 µM; reporter expression induced with tamoxifen; 130,000 compounds, 0.9% hits;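 active means inhibition above the mean plus 3 SD, with well images judged a real hit on visual review, cut at about 60% in these data, passing the limit was not always enough; inconclusive means inhibition over the cutoff but images rejected on review; inactive means inhibition not above the cutoff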
INS promoter inh cell count – further read-out of INS promoter inh, marked with its call; normalized cell count, %; measured here: cell count, toxicity; reference of the scale not given here;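 cells exposed to compound for 48 h; stained nuclei by imaging scaled within each plate; lower means fewer cells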
HSV augment primary fold – also measured in HSV augment; calls as there; fold increase; compound at 10 µM; measured here: primary screen fold increase 10 uM; tested in PC3 cells;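 GFP signal in the first replicate; 1 = infected wells without compound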
Numbers without * were called inactive; i = inactive; ? = inconclusive; nt = no result given. This is a random part of the collection; overall some 1.2% were active at least once.

Order of values: PKD1 inh	GALR2 ag	HSV augment	HSV augment primary fold	RGS16-Gao HTS	INS promoter inh	INS promoter inh cell count
- COc1ccccc1C1CCCN1Cc1nc(-c2ccc(C)s2)oc1C (stereo not given)
 : -1	nt	i	0.9	110	-221	101
- O=C(Cn1cnc2ccccc2c1=O)N1CCN(c2ccc(F)cc2)CC1
 : 8	nt	i	0.93	103	nt	nt
- COc1cc(/C=C(\C#N)C(=O)N2CCc3ccccc32)ccc1O
 : nt	nt	?	nt	103	nt	nt
- Cc1cccc(NC(=O)c2cnc3scc(C)n3c2=O)c1
 : -15	-2.2	i	0.72	112	nt	nt
- COc1ccc(CCn2nnc(-c3ccc(NC(C)=O)c(Cl)c3)n2)cc1
 : -3	-4.0	i	0.8	118	0	120
- CC(C)CC1NC(=O)N(CC(=O)Nc2ccccc2-c2ccccc2)C1=O (stereo not given)
 : 4	nt	i	1	94	-156	89
- COc1c(C)cc(C(=O)C2CCCN(Cc3c(C)n(C)n(-c4ccccc4)c3=O)C2)cc1C (stereo not given)
 : 1	nt	i	0.97	102	nt	nt
- Cc1cc(NC(=O)Nc2ccccc2[N+](=O)[O-])no1
 : 3	nt	i	1	56	nt	nt
- CC(C)N(C(=O)CSc1nc(COc2ccccc2)nc2ccccc12)C(C)C
 : -8	nt	i	0.85	116	-133	53
- COc1ccc(OC)c(S(=O)(=O)n2cccn2)c1
 : -7	0.1	i	0.95	80	nt	nt
- O=C(CNc1cccc2ccccc12)N/N=C/C(Br)=C/c1ccccc1
 : 1	-1.0	nt	nt	103	-63	96
- Cc1ccc(-n2c(O)c(C=Nc3ccc(S(=O)(=O)Nc4ncccn4)cc3)c3ccccc3c2=O)cc1C
 : 4	nt	i	0.95	101	nt	nt
- CC(C)=N/N=C(/c1ccc([N+](=O)[O-])cc1)C12CN3CN(CN(C3)C1)C2
 : 3	nt	i	0.92	106	50	84
- CCN(C(=O)CSc1nnc(-c2ccc(Cl)cc2)n1C)C1CCS(=O)(=O)C1 (stereo not given)
 : -4	nt	i	1	105	nt	nt
- COc1ccc(C(C)(C)C)cc1NC(=O)Cn1cnnn1
 : 1	nt	i	0.89	85	nt	nt
- COc1ccc(CCNC(=O)c2ccccc2NC(=O)c2ccco2)cc1OC
 : 3	-1.5	i	1.1	101	8	84
- O=C(CN1C(=O)/C(=C/c2cccc(Br)c2)SC1=S)NC1=NCCS1
 : 2	nt	i	0.98	102	nt	nt
- CCOC(=O)N1CCN(CC(=O)Nc2ccc(F)c(F)c2F)CC1
 : 5	nt	i	0.99	103	nt	nt
- CCc1ccc2c(c1)cc(CN(C(=S)Nc1ccccc1C)C1CC1)c1nnnn12
 : -5	-1.8	i	0.76	106	nt	nt
- O=C(CN1CCC(n2nnc3ccccc32)CC1)Nc1ccc2c(c1)CCC2
 : 2	-0.8	i	1.2	107	-42	82
- O=c1c2c3c(sc2n(CCN2CCCC2)c(=O)n1Cc1ccccc1)CCCCC3
 : nt	nt	i	0.84	106	nt	nt
- CCOC(=O)CSc1nc2c(c(=O)n1-c1ccc(OCC)cc1)SCC2
 : -1	-0.7	i	0.99	102	36	147
- CC(C)/C=N/Nc1nc(-c2ccc(Br)cc2)cs1
 : -5	-2.1	i	1.1	115	38	83
- C=C(C)CSc1nc(N)cc(=O)[nH]1
 : -5	-0.8	i	0.92	94	nt	nt
- O=S(=O)(c1cc(Cl)ccc1Cl)n1ccnc1
 : -9	nt	i	0.94	68	nt	nt
- COC(=O)Cn1c(CN2CCN(c3ccc(F)cc3)CC2)nc2c1c(=O)n(C)c(=O)n2C
 : 1	nt	i	0.97	101	nt	nt
- COCCNc1oc(-c2ccc(F)cc2)nc1C#N
 : -9	-0.2	i	0.85	99	nt	nt
- COc1ccccc1C1CN=NC12CCCc1ccccc1C2=O (stereo not given)
 : 7	-2.1	i	0.89	107	nt	nt
- COCC(C)NCc1cc(Br)ccc1OC (stereo not given)
 : -3	nt	i	1.1	99	nt	nt
- Cc1cc(OCc2ccccc2)ccc1/C(O)=C1/C(=O)C(=O)N(Cc2cccnc2)C1c1ccncc1 (stereo not given)
 : nt	nt	i	0.94	104	nt	nt
- O=C(COc1ccc2ccccc2c1Br)N1CCN(c2ccccn2)CC1
 : 2	-1.9	i	1	105	-22	90
- O=C(CSc1nc(-c2ccccc2)nc2c1Cc1ccccc1O2)Nc1ccccc1
 : -6	-2.0	nt	nt	102	nt	nt
- Cc1ccc(NC(=O)c2ccccc2)cc1-n1cnnn1
 : 3	nt	i	1.1	104	-15	72
- COc1ccc(CCNC(=O)CN(c2ccc(OC)c(OC)c2)S(C)(=O)=O)cc1
 : 10	-0.6	i	0.92	100	nt	nt
- O=C(Nc1cccc([N+](=O)[O-])c1)c1ccc(CN2CCOCC2)cc1
 : 3	-0.5	i	0.96	102	-6	150
- Cn1cc(/C=C2\SC(=O)N(c3ccc(O)cc3)C2=O)c2ccccc21
 : nt	nt	i	0.93	98	nt	nt
- c1ccc(CNc2ncnc3nc[nH]c23)nc1
 : -3	-1.6	i	0.65	65	nt	nt
- CS(=O)(=O)N1CCN(C(=O)c2cccnc2)CC1
 : -5	0.2	i	0.86	83	nt	nt
- CCC(=O)Nc1ccc(C(=O)OCc2ccccc2)cc1
 : -1	nt	i	1.1	106	62	101
- COc1cccc(C(=O)/C=C/c2ccc(N3CCCCC3)c([N+](=O)[O-])c2)c1
 : 5	-0.6	i	0.75	101	nt	nt
- CC(CCC(=O)O)C1CC[C@@]2(C)C3C(=O)CC4C(C)(C)C(O)CC[C@]4(C)C3C(=O)C[C@]12C (stereo not given in full)
 : nt	nt	i	1.1	100	nt	nt
- CCOC(=O)c1c(-c2ccc(C)o2)csc1NC(=O)COC(=O)c1ccc(NC(N)=O)cc1
 : -2	-0.8	i	0.95	85	24	85
- Cc1cc(NS(=O)(=O)c2ccc(NC(=O)CSc3nc4ncccc4[nH]3)cc2)nc(C)n1
 : nt	nt	i	1.1	105	nt	nt
- O=C(CSCc1cccc(Cl)c1)NCc1ccc2c(c1)OCO2
 : -3	-0.3	i	0.84	100	-33	90
- CN1CCC/C1=C1/C(=O)N(c2ccccc2)N=C1NC(=O)Nc1cccc(Cl)c1
 : -1	nt	i	1	103	nt	nt
- Cc1ccc(S(=O)(=O)NCC(=O)Nc2cccc([N+](=O)[O-])c2)cc1
 : 3	nt	i	0.93	105	nt	nt
- CSCCC(NS(=O)(=O)/C=C/c1ccccc1)C(=O)O (stereo not given)
 : -4	nt	i	1.1	102	-57	114
- c1ccc2c(c1)OCCOCCOc1ccccc1OCCOCCO2
 : -4	-0.9	i	0.94	75	-85	78
- O=C(OCc1nc2ccccc2s1)c1ccccc1O
 : -5	nt	i	1	103	nt	nt
- Cc1ccc(NC(=O)COC(=O)c2ccc(Cl)cc2)cc1S(=O)(=O)N(C)C
 : -1	nt	i	1.1	103	nt	nt
- c1ccc2c3c([nH]c2c1)C1(CCCCC1)NCC3
 : 4	nt	i	1	105	nt	nt
- O=C(O)CCCCCNC(=O)/C=C/c1ccco1
 : 0	nt	i	1.1	90	nt	nt
- c1ccc(CCNc2ncnc3scc(C4COc5ccccc5O4)c23)cc1 (stereo not given)
 : 15	-0.2	i	0.92	118	-39	84
- CCN(CC)C(=O)C(=O)N/N=C/c1ccc(C(=O)OC)cc1
 : -2	-1.2	i	1	104	-37	92
- COc1ccc(C2CC(O)(c3ccccc3)Oc3cc(OC)c(OC)c(OC)c32)cc1 (stereo not given)
 : nt	nt	i	0.74	105	nt	nt
- CC(=O)c1c(C)[nH]c(C(=O)COC(=O)C2CC2)c1C
 : -1	nt	i	1.1	92	-43	100
- C=CCNC(=S)Nc1ccc2nsnc2c1
 : -5	-0.6	i	1	99	10	116
- CNc1c([N+](=O)[O-])cnn1-c1ccccc1Cl
 : -11	1.6	i	0.92	103	nt	nt
- COc1ccc(CN2CCC(C(=O)N(C)CCc3ccc(OC)c(OC)c3)CC2)c(OC)c1
 : -2	-0.6	i	0.98	104	nt	nt
- CCCCCCCCCCn1cc(C(C)=O)c(=O)[nH]c1=O
 : -3	-4.6	i	0.87	97	-3	81

Next section.
Order of values: PKD1 inh	GALR2 ag	HSV augment	HSV augment primary fold	RGS16-Gao HTS	INS promoter inh	INS promoter inh cell count
- CCN(Cc1ccccc1)C(c1ccc(C)cc1)c1nnnn1C(C)(C)CC (stereo not given)
 : -3	-0.5	i	0.99	100	-15	100
- CS(=O)(=O)NNC(=O)c1cc2cc3ccccc3nc2s1
 : 0	nt	i	1.1	98	nt	nt
- COc1ccc(-c2cc(-c3nnc(COC(=O)CC4CCCC4)o3)c3ccccc3n2)cc1OC
 : 1	-1.7	i	0.94	94	23	74
- O=C(CSc1nnc(-c2ccc(F)cc2)o1)Nc1ccc(S(=O)(=O)N2CCCCCC2)cc1
 : 0	-1.6	i	1	99	nt	nt
- CCOC(=O)c1nn(-c2ccccc2)cc1O
 : nt	nt	i	0.83	94	nt	nt
- CC(C)(C)c1ccc(-c2n[nH]c(=S)n2/N=C/c2ccncc2)cc1
 : 3	-0.6	nt	nt	142	8	59
- COc1ccc(CC(=O)N2CCN(c3ccccn3)CC2)cc1OC
 : -6	-2.3	i	0.87	99	-320	107
- CCC(C)(C)C1CCC2(CC1)NC(=S)N(c1ccccc1)N2 (stereo not given)
 : nt	nt	i	0.93	96	nt	nt
- NS(=O)(=O)c1ccc(NC(=O)CSc2ncccn2)cc1
 : nt	nt	i	1.3	104	nt	nt
- Cc1nc2c(C(=O)NCc3ccc4c(c3)OCO4)c[nH]n2c(=O)c1Cc1ccccc1F
 : -7	-1.4	i	0.93	99	nt	nt
- Cc1ccc(OCC(=O)NCC(=O)Nc2ccc(F)cc2)c([N+](=O)[O-])n1
 : -3	0.8	i	1	96	-19	107
- COCCNC(=O)C(C)OC(=O)c1cc2sccc2n1C (stereo not given)
 : -4	1.1	i	0.99	100	29	107
- COc1ccc2oc(=O)c(C(=O)N3CCN(c4ccc(F)cc4)CC3)cc2c1
 : -7	-1.6	i	0.95	106	-412	34

Some of the entries so far, with tabs:
SMILES	PKD1 inh	GALR2 ag	HSV augment	HSV augment primary fold	RGS16-Gao HTS	INS promoter inh	INS promoter inh cell count
CNc1c([N+](=O)[O-])cnn1-c1ccccc1Cl	-11	1.6	i	0.92	103	nt	nt
COc1ccc(CN2CCC(C(=O)N(C)CCc3ccc(OC)c(OC)c3)CC2)c(OC)c1	-2	-0.6	i	0.98	104	nt	nt
CCCCCCCCCCn1cc(C(C)=O)c(=O)[nH]c1=O	-3	-4.6	i	0.87	97	-3	81
CCN(Cc1ccccc1)C(c1ccc(C)cc1)c1nnnn1C(C)(C)CC (stereo not given)	-3	-0.5	i	0.99	100	-15	100
CS(=O)(=O)NNC(=O)c1cc2cc3ccccc3nc2s1	0	nt	i	1.1	98	nt	nt
COc1ccc(-c2cc(-c3nnc(COC(=O)CC4CCCC4)o3)c3ccccc3n2)cc1OC	1	-1.7	i	0.94	94	23	74
O=C(CSc1nnc(-c2ccc(F)cc2)o1)Nc1ccc(S(=O)(=O)N2CCCCCC2)cc1	0	-1.6	i	1	99	nt	nt
CCOC(=O)c1nn(-c2ccccc2)cc1O	nt	nt	i	0.83	94	nt	nt
CC(C)(C)c1ccc(-c2n[nH]c(=S)n2/N=C/c2ccncc2)cc1	3	-0.6	nt	nt	142	8	59
COc1ccc(CC(=O)N2CCN(c3ccccn3)CC2)cc1OC	-6	-2.3	i	0.87	99	-320	107
CCC(C)(C)C1CCC2(CC1)NC(=S)N(c1ccccc1)N2 (stereo not given)	nt	nt	i	0.93	96	nt	nt
NS(=O)(=O)c1ccc(NC(=O)CSc2ncccn2)cc1	nt	nt	i	1.3	104	nt	nt
Cc1nc2c(C(=O)NCc3ccc4c(c3)OCO4)c[nH]n2c(=O)c1Cc1ccccc1F	-7	-1.4	i	0.93	99	nt	nt

Screens (PubChem)
